Bioassay records: PubChem, Center for Chemical Genomics, University of Michigan
HIV TAR-Tat: HIV-1 TAR-Tat binding disruption; HIV-1 TAR RNA, Tat peptide displacement FRET; active compounds read high; z-score (no concentration beside the values); hit rate 0.6% among 100,000;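 also: score is relative to mean and SD of negative controls; some compounds called inactive have numbers as strong as hits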
CDC25B CDK2 inh: human CDC25B-CDK2/CyclinA binding inhibition. P30305+P24941. HTRF CDC25B-CDK2/CyclinA binding, anti-His/anti-Flag; active compounds read high. z-score (test concentration not listed). hit rate 0.72% among 94,000. AID 1259370;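 also: score is relative to mean and SD of negative controls; strong numbers were not always called active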
Starred values were filed as active, the others as inactive; · = no result given.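 The calls were made as follows: active = z-score from 3 up in half or more of its runs; inactive = the rest.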

SMILES	HIV TAR-Tat	CDC25B CDK2 inh
COc1cc(OC)c(NS(=O)(=O)c2cc(Br)cnc2N)cc1Cl	-0.24	-1.2
CCN(c1ccccc1)c1ncnc2c1cnn2-c1ccc(C)cc1	0.29	·
c1coc(-c2nn3c(Cn4nnc5ccccc54)nnc3s2)c1	1.9	0.88
COc1ccc(S(=O)(=O)N2CSC[C@@H]2C(=O)NCc2csc(-c3cccs3)n2)cc1	-1.2	·
O=C1c2ccccc2S(=O)(=O)N1Cc1nnnn1-c1ccc(Br)cc1	-0.54	-1.8
CCC(NC(=O)CCc1c(C)nc2c(c1C)c(=O)n(C)c(=O)n2C)c1cccs1 (configuration not stated)	0.38	-1.7
CCSc1nnc2c3ccccc3n(C)c2n1	-0.07	-5.2
O=c1[nH][nH]c2cccc(F)c12	·	-0.49
COc1ccc(CN2CCN(Cc3ccco3)CC2)cc1	-0.53	0.12
O=C(Cn1ccc2ccccc2c1=O)NCCC(=O)NC1CC1	·	-0.81
CCCc1cc(NCCCN2CCOCC2)n2c(nc3ccccc32)c1C#N	0.48	-0.72
CCN(CC)S(=O)(=O)c1ccc2c(c1)CC(C(=O)NCCN1CCN(C)CC1)N2C(C)=O (configuration not stated)	0.93	·
CC1CCN(S(=O)(=O)c2ccc3c(c2)N(CC(=O)N2CCOCC2)C(=O)CO3)CC1	-0.92	·
CCc1nnc(SCc2nc(-c3cccs3)oc2C)c2cc3sc(C)cc3n12	-0.46	·
O=C(COC(=O)c1ccco1)c1ccc(-n2nncc2-c2ccco2)cc1	-0.94	·

Four consecutive entries already listed:
SMILES	HIV TAR-Tat	CDC25B CDK2 inh
COc1cc(OC)c(NS(=O)(=O)c2cc(Br)cnc2N)cc1Cl	-0.24	-1.2
CCN(c1ccccc1)c1ncnc2c1cnn2-c1ccc(C)cc1	0.29	·
c1coc(-c2nn3c(Cn4nnc5ccccc54)nnc3s2)c1	1.9	0.88
COc1ccc(S(=O)(=O)N2CSC[C@@H]2C(=O)NCc2csc(-c3cccs3)n2)cc1	-1.2	·

(more compounds)
SMILES	HIV TAR-Tat	CDC25B CDK2 inh
O=C(O)c1nccnc1C(=O)NCCSCc1c(F)cccc1Cl	·	-1.6
CCCCCCSC1=C(C#N)C(c2cccc(Cl)c2)CC(=O)N1 (configuration not stated)	0.41	-0.31
CCOc1ccc(S(=O)(=O)n2c(C)nc3ccccc32)c2ccccc12	0.5	-1.9
Cc1ccc(-c2nn3c(C(F)(F)F)nnc3s2)cc1	0.69	0.96
Cc1csc(/N=C/N(C)C)c1C#N	·	-1.7
Nc1cccc(-c2nc(-c3cccc(Br)c3)co2)c1	0.11	·
O=C(Nc1nc(-c2cccs2)cs1)c1ccc2c(c1)OCCO2	0.45	·
CCN(CC)S(=O)(=O)c1ccc(OC)c(N2CC(O)=C(c3nc4ccccc4[nH]3)C2=N)c1	2.5	-2.3
CCN(CC)S(=O)(=O)c1ccc2c(c1)N(Cc1ccncc1)C(=O)CS2	-1	·
O=C(NCCc1ccccc1)NCc1cccn1Cc1cccc(F)c1	0.2	·
Cc1sc(-n2cccc2CNCCC(C)C)c(C(=O)O)c1C	-0.74	·
Cc1nc2ccccc2n1CC(C)C	-0.29	-0.31
O=C(NC1CC1)C1=Cc2sc3c(c2CS1)CCCC3	-0.3	·
CCN1CCN(c2nnc(-n3cccc3CNc3ccc(OC)cc3OC)s2)CC1	-0.49	·
O=C(NCc1ccco1)c1ccc(CS(=O)c2ccc(Br)cc2)o1 (configuration not stated)	-0.22	-1.2
COC(=O)c1sccc1NC(=O)Cn1cnc2c1c(=O)n(C)c(=O)n2C	1.1	-0.43
O=c1c(Cl)c(N2CCOCC2)cnn1-c1cnc2ccccc2n1	·	-0.58
Cc1c(N2CCN(C(=O)c3n[nH]c4c3CCCC4)CC2)c(=O)n(C)c(=O)n1-c1ccccc1	0.74	·
CCCOc1ccc(C2C(C(=O)OC3CCCC3)=C(C)NC3=C2C(=O)C(C(=O)OC)C(C)C3)cc1 (configuration not stated)	-0.62	-1.2
CO[C@H]1C[C@H](O[C@H]2[C@H](C)[C@@H](OC3O[C@H](C)C[C@H](N(C)C)[C@H]3OC(C)=O)[C@@H](C)C[C@]3(CO3)C(=O)[C@H](C)[C@@H](OC(C)=O)[C@@H](C)[C@@H](C)OC(=O)[C@@H]2C)O[C@@H](C)[C@@H]1OC(C)=O (some centres not stated)	1.8	·
O=C(C1CC1)N1CCC(c2nc3c(nnn3Cc3ccccc3F)c(=O)[nH]2)CC1	-1.5	-0.1
Cc1csc2nc(CSc3nnc(-c4cccs4)o3)cc(=O)n12	1.6	-0.64
CCOc1cc(C2C(C#N)=C(N)OC3=C2C(=O)CCC3)ccc1OC (configuration not stated)	·	-0.97
O=C1c2ccccc2C(Nc2ccc(S(=O)(=O)N3CCCCC3)cc2)N1c1ccccn1 (configuration not stated)	-0.35	-1.3
CCC1(c2cccc(OC)c2)CCCC/C1=N\O (configuration not stated)	·	-1.9
C=CCN1C(=O)/C(=C/c2cc(Cl)ccc2OCCOc2ccc(OC)cc2)SC1=S	·	-1.4
CC(c1cccs1)N(C(=O)Cn1c(=O)oc2ccccc21)C1CCCC1 (configuration not stated)	-0.72	·
CC(C)c1nn2c(=O)cc(COC(=O)c3ccccc3Cl)nc2s1	2.6	·
O=C(O)CCC1(C(=O)O)OCCc2ccccc21 (configuration not stated)	·	-0.69
Cn1c(Cn2c(=O)sc3ccccc32)nnc1SCC(=O)N1CCc2ccccc21	·	-1.4

Compounds shown so far with a cyano group (4):
SMILES	HIV TAR-Tat	CDC25B CDK2 inh
CCCc1cc(NCCCN2CCOCC2)n2c(nc3ccccc32)c1C#N	0.48	-0.72
CCCCCCSC1=C(C#N)C(c2cccc(Cl)c2)CC(=O)N1 (configuration not stated)	0.41	-0.31
Cc1csc(/N=C/N(C)C)c1C#N	·	-1.7
CCOc1cc(C2C(C#N)=C(N)OC3=C2C(=O)CCC3)ccc1OC (configuration not stated)	·	-0.97

Additional records follow:
SMILES	HIV TAR-Tat	CDC25B CDK2 inh
Cc1nn(S(=O)(=O)c2ccc(C(C)C)cc2)c(C)c1S(=O)(=O)N1CCCC(C)C1 (configuration not stated)	0.71	·
C=CCn1c(SCC(=O)c2ccc(F)cc2)nnc1-c1cccs1	0.2	·
O=C(N1CCCCC1)C1(c2cccs2)CCOCC1	0.77	·
CCCCCc1ccc(-c2ccc(=O)[nH]n2)cc1	·	-0.27
Cc1ccc(-c2nonc2NC(=O)c2ccc(Br)cc2)cc1	0.93	-0.57
O=C1C2C3CCC(C3)C2C(=O)N1c1ccc(O)cc1 (configuration not stated)	·	-1.5
CC1=C(C(=O)OCCc2ccccc2)C(c2ccsc2)C2=C(CCCC2=O)N1 (configuration not stated)	0.04	-2.6
O=C(CCCN1C(=O)CSc2ncccc21)N1CCN(c2ccccc2)CC1	0.86	-0.33
COc1ccc(CC(=O)NN)cc1OC	·	-1.6
Fc1cccc(CN2CCc3nc(Nc4ccc5c(c4)OCCO5)ncc3C2)c1F	1	·
CC(=O)Oc1ccc(C2Nc3ccc(C(=O)O)cc3C3C=CCC32)c(OC(C)=O)c1 (configuration not stated)	·	5.1*
CC1=C(OC(=O)/C=C/c2ccccc2)C(=O)CC1	·	-2.1
Cc1nn(C(C)C(=O)NC2CCCC(C)C2C)c(=O)c2c1sc1ccccc12 (configuration not stated)	2.5	-2.5
CCC(C)N(CCNC(=O)Cn1ncc2c([nH]c3ccccc32)c1=O)Cc1ccco1 (configuration not stated)	0.2	·
CCOC(=O)CN1C(=O)C(O)(CC(=O)c2ccc(C)cc2C)c2ccccc21 (configuration not stated)	0.27	-1.2

In the list so far, four have a COOH group.
SMILES	HIV TAR-Tat	CDC25B CDK2 inh
O=C(O)c1nccnc1C(=O)NCCSCc1c(F)cccc1Cl	·	-1.6
Cc1sc(-n2cccc2CNCCC(C)C)c(C(=O)O)c1C	-0.74	·
O=C(O)CCC1(C(=O)O)OCCc2ccccc21 (configuration not stated)	·	-0.69
CC(=O)Oc1ccc(C2Nc3ccc(C(=O)O)cc3C3C=CCC32)c(OC(C)=O)c1 (configuration not stated)	·	5.1*

Next section
SMILES	HIV TAR-Tat	CDC25B CDK2 inh
Cc1ccc(-c2nc3ccccn3c2Nc2ccc3c(c2)OCCO3)s1	·	-3.2
CCn1c2ccccc2c2nnc(N3CCN(c4ccccn4)CC3)nc21	0.79	-0.81
Nc1nc2c3ccccc3nc(Cc3ccccc3)n2n1	·	-0.4
Cc1ccc(-c2cc3c4n[nH]c(=O)n4ccn3n2)cc1	-0.44	-1.5
O=C(NCc1ccc2c(c1)OCO2)c1ccc(CN2CC(=O)N3CSCC3C2=O)cc1 (configuration not stated)	0.2	·
O=C(NCCCSc1ccccc1F)c1ccc(Cl)cc1Cl	·	-1.6
O=C(c1nc(-c2ccc(Cl)cc2)n2c1CCCCC2)N1CCOCC1	0.48	·
O=C(CNS(=O)(=O)c1cccs1)NCc1ccccn1	0.28	·
Fc1ccc(N2COc3cc4c(cc3C2)OCO4)cc1Cl	·	8.6*
COc1cccc(C2=Nc3cccc4cccc(c34)N2)c1	0.92	0.96
Cn1nnc2c(N3CCN(C(c4ccccc4)c4ccccc4)CC3)ncnc21	2.2	·
O=C(c1cc(C2CC2)[nH]n1)N1CCN(S(=O)(=O)c2ccc(Br)cc2)CC1	2	·
C1=CC=CC(C2C=CC=CC=C2)C=C1	·	-2.5
CCCCN(CC)CCNS(=O)(=O)c1cc2c(cc1C)NC(=O)CO2	1.6	·
CCSCCOC(=O)C1=C(C)NC2=C(C(=O)CC(C)(C)C2)C1c1ccc(OC(C)=O)cc1 (configuration not stated)	1.5	-1.5
Cc1ccc(C)c(N2CCN(C(=O)CCc3c(C)nn4cnnc4c3C)CC2)c1	-0.05	·
N/C(=N\NC(=O)Nc1ccc(OC(F)(F)F)cc1)c1cnccn1	·	6.5
CNC(=O)N(CCS(=O)(=O)c1ccc(Cl)cc1)Cc1cccs1	·	-0.69
O=C(C1CCN(c2nnc(-n3cccc3)s2)CC1)N1CCN(C2CCCCC2)CC1	0.52	·
O=C(Nc1nnc(C2CC2)s1)c1ccc2c(c1)OCO2	·	-1.4
COc1ccc(C2=C(C#N)C(=C(C#N)C#N)NC(c3ccc(OC)cc3O)=C2)cc1	·	-2.2
Cc1noc(-c2ccc(C)c(S(=O)(=O)Nc3ccc(C)c(Cl)c3)c2)n1	0.51	·
C=C(C)Cn1c(C2CC(=O)N(c3cccc(C)c3)C2)nc2ccccc21 (configuration not stated)	0.7	1.8
Cc1cc2c3c([nH]c2cc1S(=O)(=O)NCc1ccc2c(c1)OCO2)CC(C)(C)CC3=O	-1.4	·
O=C(CN1C(=O)C2(OCCO2)c2ccccc21)c1ccc(F)cc1	·	-1.1
Cc1ccccc1Nc1nc(Nc2ccc(F)cc2)nc2c1cnn2C	1.4	·
CCc1ccc(C2c3c(-c4ccccc4O)n[nH]c3C(=O)N2Cc2cccnc2)cc1 (configuration not stated)	-0.98	2.4
COc1cc(CCC(=O)NNC(=O)c2ccc(Cl)cc2)cc(OC)c1OC	·	-1.7
CCOC(=O)c1sc(NC(=O)C(F)(F)F)c(C(=O)OCC)c1C	·	-1.5
COCCn1c(SCC(=O)Nc2nnc(C)s2)nc2c(c1=O)SCC2	1.3	-2.1
O=C1CC(c2cccc(O)c2)c2c(nc(SCc3ccccc3F)[nH]c2=O)N1 (configuration not stated)	1.5	0.05
Cc1nc2c(c(C)c1CCC(=O)N1CCC(C)CC1)c(=O)n(C)c(=O)n2C	-0.2	-0.7
CCN(CC)CCCNS(=O)(=O)c1cc(-c2onc(C)c2C)ccc1OC	-0.71	·
CCc1ccc(/C=C/c2c([N+](=O)[O-])c(=O)n(C)c(=O)n2C)cc1	0.86	0.41
CSc1nc(N2CCCC2)nc(-c2ccco2)c1C#N	·	-0.39
COc1cc(Br)cc2c1Oc1nc(-c3ccccc3)nc(SCC(N)=O)c1C2	-0.82	-3
CCOC(=O)N1CCC(NC(=O)c2cnn3c(C)cc(C)nc23)CC1	0.1	·
CSC1=C(C#N)C(=O)NC(c2cccs2)S1 (configuration not stated)	·	-1.9
O=C(NCc1ccc2c(c1)OCO2)C(=O)NCC(c1ccco1)S(=O)(=O)c1ccc(Cl)cc1 (configuration not stated)	0.99	·
COCCNc1ncccc1-c1nc(-c2ccc(C)cc2)no1	-0.26	-1.4
CCN(Cc1ccccc1)Cc1csc(C)c1C	1	·
COc1ccc(-c2cnn3c(C(F)(F)F)cc(-c4cccs4)nc23)cc1OC	-0.64	1.7
Cc1cc(C)cc(-n2ccn3c(=O)[nH]nc3c2=O)c1	0.23	-1.7
Fc1cc(F)cc(-c2noc3ncnc(Nc4ccccc4)c23)c1	1.1	·
Cn1c2ccccc2c2cnn(CC(=O)NCCC3=CCCCC3)c(=O)c21	-0.66	0.41
COc1cccc(-c2nc3c(c(SCc4ccncc4)n2)Cc2c(CO)cnc(C)c2O3)c1	1.9	-2
COc1ccc(C2c3c(-c4ccccc4O)n[nH]c3C(=O)N2CCc2ccccc2)cc1OC (configuration not stated)	1.4	2.2
CCc1nnc2sc(-c3ccc(Cl)cc3)nn12	0.29	-0.7
Cc1cc(NC(=O)c2c(C)noc2C)no1	·	-1.4
CCN(CC)C(=O)CCc1nc(CN2CCN(C(=O)c3cccs3)CC2)no1	0	·
CNC(=O)c1c(NC(=O)c2ccco2)sc2c1CCC(C(C)(C)C)C2 (configuration not stated)	0.46	-0.42
CCOC(=O)C1CCN([C@H]2CS(=O)(=O)C[C@@H]2S(=O)(=O)c2ccc(C)cc2)CC1	0.55	-1.8
CC(C)NC(=O)c1sc(=S)n2c1[nH]c(=O)c1ccc(C(=O)NCCN(C)C)cc12	7.5*	·
CC1=N/C(=C\c2ccc3c(c2)OCO3)C(=O)O1	·	-1.6
Cn1c(=O)n(CC(=O)O)c(=O)c2c1nc1n2CCCN1c1ccc(Br)cc1	-0.42	-2.7
CCn1c(C(=O)N2CCC(C(=O)NCc3ccco3)CC2)cc2sccc21	1.2	-0.64
CC(=O)N1c2ccc(S(=O)(=O)N3CCCCC3)cc2CC1C(=O)NC(C)C (configuration not stated)	-1	·
Cc1cc(C)c2[nH]c(CSc3nnc(-c4cccc(F)c4)n3C)cc(=O)c2c1	-0.27	·
